Screens from PubChem BioAssay.
Ecoli rRNA inh: reduced GFP signal of wild-type E. coli, primary screen, bacterial rRNA inhibitor project, GFP/RFP fluorescence, OD600, single point; E. coli WT GFP vs humanized-ribosome RFP mutants, 24 h; hits give low values; DMSO median 0, no signal -100; GFP signal change (wild-type ribosome), % (test concentration not listed); actives 1.6% (n = 350,000); AID 720706, 2013;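 active = significant combined selectivity score with lowered wild-type GFP, culture density cut under 30%, mutant RFP and density less affected; inactive = any of these conditions unmet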; also: one replicate is shown; some compounds called inactive have numbers as strong as hits
AF4-AF9 inh: inhibitors of AF4 peptide binding to AF9, primary screen, biochemical, AlphaScreen, biotin-AF4 peptide, FLAG-AF9, single point. AID 651704, 2012. inhibition, % at 10 µM. actives 0.47% (n = 350,000);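 active = every replicate reaching a set inhibition limit, whatever the replicate mean, cut at about 25% in these data; inconclusive = mean inhibition reaches that limit but some replicates miss it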;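 also: 0% = plate neutral control median and 100% = total signal loss; the record names both 10 and 1 µM as test concentration; the first replicate is given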
Target sequence (P42568 whole entry, looked up): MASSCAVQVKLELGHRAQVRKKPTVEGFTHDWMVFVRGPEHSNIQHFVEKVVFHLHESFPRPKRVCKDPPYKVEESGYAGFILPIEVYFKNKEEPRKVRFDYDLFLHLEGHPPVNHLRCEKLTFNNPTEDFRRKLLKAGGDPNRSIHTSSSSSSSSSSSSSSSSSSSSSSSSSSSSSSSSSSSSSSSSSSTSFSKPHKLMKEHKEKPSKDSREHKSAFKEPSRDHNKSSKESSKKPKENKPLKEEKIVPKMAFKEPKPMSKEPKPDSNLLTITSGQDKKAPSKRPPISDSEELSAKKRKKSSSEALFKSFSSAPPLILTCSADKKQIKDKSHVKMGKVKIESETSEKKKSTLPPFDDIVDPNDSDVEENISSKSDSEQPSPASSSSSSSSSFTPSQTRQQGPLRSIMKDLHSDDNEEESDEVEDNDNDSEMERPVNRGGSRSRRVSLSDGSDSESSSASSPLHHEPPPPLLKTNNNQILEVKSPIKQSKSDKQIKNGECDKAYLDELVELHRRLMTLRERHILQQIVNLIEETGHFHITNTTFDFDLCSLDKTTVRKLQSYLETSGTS
RanGTP-Imp inh: inhibitors of RanGTP-importin-beta interaction, primary screen, biochemical, FRET, CFP-Ran, YFP-importin-beta, homogeneous; Ran GTPase (GTP-bound) - importin-beta complex; cell-free CFP-Ran/YFP-importin-beta FRET ratio; inhibition, % (no concentration beside the values); actives 1.1% (n = 300,000); AID 2216, 2009;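 active = most replicates above 15%; inconclusive = exactly half above 15%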;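 also: 0% = DMSO wells and 100% = Ran loaded with GDP instead of GTP; wells of about 40 µL received 100 nL stock; the first replicate is given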
T cruzi inh: inhibitors of intracellular T. cruzi growth, primary screen, luminescence, NIH3T3 host cells; T. cruzi beta-gal in NIH3T3, 90 h; inhibition, % (test concentration not listed); actives 1.4% (n = 300,000); AID 1885, 2009;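 active = mean inhibition across valid replicates above about 55%, limit read from the data; inconclusive = mean below that limit but half or more replicates reach it; inactive = mean below it, under half of replicates reach it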;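 also: signal also drops with host cell toxicity which is not excluded here; 0% = plate median of DMSO wells and 100% = zero luminescence signal; higher percent means less beta-gal luminescence so fewer parasites; stock transfer was 50 nL into about 50 µL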
FGF22 binding: binders of human FGF22 protein, primary screen, FGF22 synaptogenesis inhibitor project, biophysical, thermal shift, single point | Fibroblast growth factor 22 (Homo sapiens), Q9HCT0 | recombinant FGF22 thermal shift, SYPRO orange fluorescence; percent of sucrose octasulfate shift, DMSO zero | calls only at 9.99 µM | actives 1.5% (n = 340,000) | AID 651658, 2012;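 active = melting point raised past a set limit in the mean and every replicate; inconclusive = no clear call; three in four hits are not shown here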
Target sequence (Q9HCT0 whole entry, looked up): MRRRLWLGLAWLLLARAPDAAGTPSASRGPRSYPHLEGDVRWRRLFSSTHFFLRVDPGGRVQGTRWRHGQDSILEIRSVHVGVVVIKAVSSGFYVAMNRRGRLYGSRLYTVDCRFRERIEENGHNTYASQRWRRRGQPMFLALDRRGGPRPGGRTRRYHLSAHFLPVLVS
Beta cell apopt: inhibitors of cytokine-induced beta cell apoptosis, primary screen, luminescence. protection from apoptosis, % (concentration not given with the values). actives 0.8% (n = 300,000). INS-1E cytokine-induced death, ATP luminescence, 48 h; percent of positive-control rescue, neutral wells zero. AID 435005, 2010;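 active = all replicates at 75% or more, or half of them and the mean; inconclusive = half reach 75% but not the mean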;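 also: 0% = cytokine-treated negative control wells and 100% = positive control rescue; higher means more ATP so stronger rescue from cytokine killing; wells of about 40 µL received 100 nL stock; the first replicate is given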
ALR H2O2 inh: inhibitors of human ALR sulfhydryl oxidase, primary screen, biochemical, H2O2 detection, HRP-luminol luminescence, single point | purified ALR, DTT oxidation | inhibition, % (no concentration beside the values) | actives 3.8% (n = 290,000) | AID 485317, 2010;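 active = mean and each replicate at 75% or more; inconclusive = only one of the two met; inactive = neither met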;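 also: stock transfer was 7.5 nL into about 7.5 µL; 0% = neutral wells and 100% = wells with inactivated enzyme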
Target sequence (P55789 whole entry, looked up): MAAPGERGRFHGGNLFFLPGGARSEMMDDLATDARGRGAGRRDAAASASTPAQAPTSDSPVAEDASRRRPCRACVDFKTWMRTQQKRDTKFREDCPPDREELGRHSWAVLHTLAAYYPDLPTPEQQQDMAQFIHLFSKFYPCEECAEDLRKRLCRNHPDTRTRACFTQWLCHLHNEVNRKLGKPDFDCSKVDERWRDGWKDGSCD
Calb FLC: C. albicans growth inhibition with fluconazole, primary screen, CaCi-2 strain, Alamar Blue fluorescence; growth inhibition, % (test concentration not listed); AID 1979, 2009; C. albicans CaCi-2 (fluconazole-resistant clinical isolate) + fluconazole, 48 h; actives 0.57% (n = 300,000);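 active = most replicates above 75%; inconclusive = exactly half above 75%; inactive = most below 75%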;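 also: all wells also contain fluconazole at 8 µg/ml as a sub-toxic cotreatment; 0% = median of DMSO wells and 100% = median of geldanamycin control wells; wells of about 8 µL received 7.5 nL stock; the first replicate is given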
Ecoli rRNA inh OD600: recorded beside Ecoli rRNA inh, whose call it bears; OD600 change, %; measured here: OD600 growth;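 optical density of the mix in the first replicate; 0 = DMSO median and -100 = no signal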
Ecoli rRNA inh RFP: also measured in Ecoli rRNA inh; calls as there; RFP signal change, %; measured here: RFP humanized mutant strains;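 first replicate; 0 = DMSO median and -100 = no signal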
* = called active by the depositor; i = inactive; ? = inconclusive; . = not tested or not shown.

SMILES	Ecoli rRNA inh	Ecoli rRNA inh OD600	Ecoli rRNA inh RFP	AF4-AF9 inh	RanGTP-Imp inh	T cruzi inh	FGF22 binding	Beta cell apopt	ALR H2O2 inh	Calb FLC
COc1ccc2nc(C)cc(SCC(=O)NNC(=O)COc3ccccc3)c2c1	.	.	.	.	1.5	-24	.	-8	0	-3
CCCCN1C(=O)c2ccc(C(=O)NC3=NCCS3)cc2C1=O	.	.	.	.	?	6	.	-3	5	0
c1ccc2[nH]c(-c3nc4ccccc4[nH]3)nc2c1	.	.	.	.	8.3	46	.	.	-26	-4
Cn1nnnc1Sc1ncnc2scc(-c3ccc(Br)cc3)c12	-37	-53	-4.1	2.4	.	.	i	2	2	.
COc1ccc2cc(C(=O)/C=C/c3cc(OC)c(O)c(OC)c3)ccc2c1	-8	-12	2.1	10	1.7	-45	i	.	6	14
COC(=O)C1C(=O)CC(C)(O)C(C(=O)OC)C1/C=C/c1ccccc1 (stereo not drawn)	.	.	.	.	0.7	0	.	2	-1	-3
O=C(CCc1nnc2n(Cc3ccccc3Cl)c(=O)c3ccccc3n12)NCCCN1CCOCC1	2	4	-0.7	3.2	-1.0	19	i	-3	2	4
Cc1ccc(Nc2nnc(C)c(=O)[nH]2)cc1	25	19	2.8	-0.5	-1.2	1	i	-9	3	5
COc1cc(C(=O)Nc2ccccc2SCc2cc(=O)n3nc(C)sc3n2)cc(OC)c1OC	8	4	2.2	-2.2	0.2	3	i	0	1	12
CCCCn1c(N)c(N(CC(C)C)C(=O)c2cccc(S(=O)(=O)N3CC(C)OC(C)C3)c2)c(=O)[nH]c1=O (stereo not drawn)	2	-6	3.9	-9.7	-2.7	-4	i	.	-2	13
CC(C)Oc1ccc(OCCSc2nc3ccccc3n2CC(=O)O)cc1	-7	-8	1.8	0.1	-1.7	-12	i	7	0	15
Cc1cc(C)n(C(=O)c2ccc(Cn3nc(C)c(Br)c3C)o2)n1	.	.	.	.	1.2	-5	.	-3	0	-25
Cc1nn(C(C)C(=O)NC2C(=O)N3C(C(=O)O)=C(CSc4nnnn4C)CSC23)cc1Cl (stereo not drawn)	14	25	3.6	-8.5	1.4	-10	i	-2	4	?
CCCn1nc(NC(=O)c2ccco2)c2cc3ccc(C)cc3nc21	.	.	.	.	57*	4	.	4	.	23
COc1ccccc1NC(=O)CSc1nnc(Cc2cccn2C)n1CCc1ccccc1	.	.	.	.	-3.9	13	.	2	4	-1
Cc1cccn2c(=O)c(C(=O)NCCCN3CCCCC3C)c(O)nc12 (stereo not drawn)	3	6	-2.1	0.5	3.7	4	i	2	0	-13
COc1cccc(NC(=O)CSCC(=O)Nc2ccccc2)c1	.	.	.	.	1.7	-20	.	-2	.	-26
Cc1ccc(NC(=O)/C(=C/c2cccc([N+](=O)[O-])c2)NC(=O)C2CCCCC2)c(C)c1	7	10	-5.4	-2.0	5.4	2	i	42	0	-7
C[C@H]1C=CC(=O)O[C@H]1c1ccccc1	16	16	-5.7	-0.6	-5.6	52	i	-66	-12	-7
O=C(Nc1cccc(NC(=O)C2CCCO2)c1)C1CCCO1 (stereo not drawn)	15	10	-2.2	-2.4	5.9	-7	i	-7	-4	5
O=C(O)CCCC(=O)OCCc1cc2ccccc2c(=O)o1	20	10	1.2	1.6	.	.	i	-11	-4	.
COc1ccc(NC(=O)c2cccc(-c3ccc(O)cc3)c2)cn1	1	-6	13	4.3	-2.8	-3	.	9	?	14
CCOc1ccc(NC(=O)CN(C)c2ccc(S(=O)(=O)N(C(C)C)C(C)C)cn2)cc1OCC	.	.	.	.	1.5	8	.	.	0	-13
NC(=O)SC/C(=N\S(=O)(=O)c1ccccc1)Nc1ccccc1	-4	-6	1.1	-11	.	.	i	-1	24	.
CCc1ccc(NC(=O)CCc2ccc(CC)o2)cc1	-1	3	3.3	1.2	3.5	7	i	.	24	7
Cc1ccc(OCCOCCN2CCCCC2)c([N+](=O)[O-])c1	13	9	1.5	3.3	-1.4	-3	i	-7	0	6
O=C1NN(c2ccc(F)cc2)C(=O)/C1=C\c1cnn(-c2ccccc2)c1	9	18	2.8	-1.4	-2.9	-1	i	-6	-3	-42
O=C(CN1C(=O)C2C3C=CC(C3)C2C1=O)Nc1cccc2c1CCCC2 (stereo not drawn)	.	.	.	.	4.4	0	.	0	1	1
CCOC(=O)c1cccc(S(=O)(=O)N2CCOCC2)c1	12	12	0.1	-2.6	-1.7	-1	i	-11	2	-6
CCCCn1c(N)c(N(CC(C)C)C(=O)CC2CCCC2)c(=O)[nH]c1=O	8	13	3.5	-3.3	-0.4	0	i	3	-3	-5
Cc1ccccc1CNS(=O)(=O)c1ccc2c(c1)C(C)(C)C(=O)N2C	-3	4	0.4	0.5	2.1	-26	i	-2	-7	-2
CCOC(=O)C1C(c2cccs2)NC(=O)NC1(O)C(F)(F)F (stereo not drawn)	4	8	0.1	-1.8	-3.4	-9	i	-7	-5	-14
CC(C)C(=O)Nc1nnc(Sc2ccc(N(C)C)cc2)s1	.	.	.	.	-3.0	-4	.	-6	-4	-16
O=C(O)CCN1C(=O)/C(=C\c2cccc(OCC(=O)Nc3ccc(Cl)cc3)c2)SC1=S	-30*	-5.3*	3.8*	-23	-0.7	0	i	5	34	-9
CCOc1ccc(NC(=S)NCCCn2ccnc2)cc1	.	.	.	.	0.8	9	.	3	9	-4
O=C(NCc1ccccc1Cl)c1cnc2ccccc2n1	-4	-14	-2.4	-16	3.3	1	i	-3	-1	1

Structures above marked active in RanGTP-Imp inh:
SMILES	Ecoli rRNA inh	Ecoli rRNA inh OD600	Ecoli rRNA inh RFP	AF4-AF9 inh	RanGTP-Imp inh	ALR H2O2 inh
CCCn1nc(NC(=O)c2ccco2)c2cc3ccc(C)cc3nc21	.	.	.	.	57*	.

Continued:
SMILES	Ecoli rRNA inh	Ecoli rRNA inh OD600	Ecoli rRNA inh RFP	AF4-AF9 inh	RanGTP-Imp inh	T cruzi inh	FGF22 binding	Beta cell apopt	ALR H2O2 inh	Calb FLC
NS(=O)(=O)c1ccc(-n2cccc2C=O)cc1	24	13	-2.1	0.0	-1.5	-2	i	-6	-4	-6
COc1cc2cnc(-c3ccccc3)c(C(=O)c3ccc(F)cc3)c2cc1OC	-12	-13	-7.1	6.2	.	.	i	0	-10	.
COC(=O)C1CCN(S(=O)(=O)CCNC(=O)c2cccc(OC)c2)CC1	18	8	11	-16	-0.3	0	i	-4	-2	3
Cc1cc2c(cc1S(=O)(=O)NCc1ccc(Cl)cc1)OCC(=O)N2	-3	-14	-2.8	-6.0	3.2	-2	i	8	-7	0
CN(Cc1ccccn1)C(=O)CC1C(=O)NCCN1Cc1cccc(Oc2ccccc2)c1 (stereo not drawn)	7	3	-2.0	0.0	1.2	-9	i	5	-1	25
O=C(O)/C=C\c1ccccc1Oc1cccc(Cl)c1	-37	-36	-6.3	-3.1	-0.3	0	i	.	39	-7
CCC(CC)COC(=O)C1=C(C)NC(=O)NC1c1ccc([N+](=O)[O-])cc1 (stereo not drawn)	-2	-1	-0.9	3.1	-2.3	8	i	0	-2	4
Cc1cccc2cc(COC(=O)C(C)(C)C)c(=O)[nH]c12	.	.	.	.	5.2	-6	.	-2	-9	-5
O=C(Nc1ccon1)c1sc2ccccc2c1Cl	.	.	.	.	-2.0	-2	.	-4	-1	-8
CC1Cc2ccccc2N1C(=O)CSc1nnc(-c2ccc(S(=O)(=O)N3CCCC3)cc2)n1C (stereo not drawn)	.	.	.	.	-5.1	7	.	-3	-2	-6
CCCOC(=O)C1C2C=C[C@]3(CN(CCc4ccccc4)C(=O)[C@H]13)O2 (stereo partly drawn)	.	.	.	.	0.2	4	.	-10	-7	0
COc1cccc(C(=O)O/N=C(\C)c2cnccn2)c1	-7	-9	1.4	1.8	-13	3	i	-2	-2	4
COc1ccccc1N1CCN(C(CNC(=O)c2ccc3c(c2)OCO3)c2cccnc2)CC1 (stereo not drawn)	.	.	.	.	0.9	50	.	0	57	-3
COc1ccc(OCC(=O)Nc2ccc3c(c2)nc2n3CCSC2)cc1	.	.	.	.	-1.3	9	.	5	4	0
O=C1c2ccncc2C(=O)N1Cc1cccc(Cl)c1	.	.	.	.	2.5	0	.	-3	.	19
COc1cc(CCC(=O)Nc2ncc(C)s2)cc(OC)c1OC	2	8	2.7	-0.1	1.9	-1	i	-8	-3	-7
O=C(Nc1ccc(C(=O)N2CCCCC2)cc1)c1cccs1	-6	-14	-1.1	-1.6	-1.0	-7	i	.	3	-1
CCOC(=O)c1c(C)[nH]c(C(=O)COC(=O)c2ccccn2)c1C	.	.	.	.	0.2	-11	.	1	-19	-22
Cc1cc(C)cc(Oc2ccc(S(=O)(=O)N3CCN(C)CC3)cn2)c1	0	1	-1.0	?	.	28	i	1	4	-4
COc1cc2ccnc(Cc3cccc(OC)c3OC)c2cc1OC	-4	-16	-12	-7.2	-3.4	6	i	27	-24	-27
CCN(CC)S(=O)(=O)c1cccc(-c2n[nH]c(=S)n2/N=C/c2ccc(OC(F)F)cc2)c1	-18*	-13*	1.4*	1.6	4.4	-14	i	3	98*	7
NC(=O)CSc1nnc(-c2ccccc2)c(-c2ccccc2)n1	0	-8	0.6	2.6	-4.9	2	i	-3	16	4
O=C(c1ccccc1)c1nc[nH]c1C(=O)Nc1ccccc1	.	.	.	.	?	4	.	13	1	0
CCC(C)c1ccc(NC(=S)NC(C)C2CCCO2)cc1 (stereo not drawn)	-16	-23	2.6	3.7	0.3	-21	i	1	9	-29
CCOc1ccc(CCNC(=O)c2cc3c(s2)CS(=O)(=O)C3)cc1OCC	2	7	-4.7	-0.4	4.0	36	i	.	-7	-10
COc1ccc(N2CCN(C(=O)CN(C)S(=O)(=O)c3cccs3)CC2)cc1	-4	-7	2.7	0.8	-2.3	1	i	0	99*	-5
CCS(=O)(=O)N1CCN(C(=O)c2ccco2)CC1	14	11	1.7	-7.9	1.7	1	i	-4	.	-4
CC(C)(C)NC(=O)C(c1ccc(F)cc1)N(Cc1cccs1)C(=O)c1ccc(CN2CCOCC2)o1 (stereo not drawn)	7	5	-0.9	0.5	?	8	i	-6	-19	5
CCOC(=O)N/N=C/c1ccc(F)cc1F	7	9	-1.2	0.2	-1.0	-26	i	-8	.	-2
Cc1[nH]nc2c1C(c1cc(Br)cs1)C(C#N)=C(N)O2 (stereo not drawn)	3	1	5.7	-6.1	-3.0	0	i	-10	12	11
O=C(Nc1ccc2c(c1)OCCO2)c1ccccc1	.	.	.	.	0.0	-5	.	-2	3	-7

Some of the compounds tested; the hit share may differ from the screen's.
